Screening results as filed in PubChem.
BRCT inh green: BRCA1 BRCT-phosphoprotein interaction inhibition | P38398 | BRCA1 BRCT-phosphopeptide binding, green fluorescence polarization | Potency, µM (doses to about 76.9 µM), without a hit: top-dose activity change, negative = inhibition, most hits filed as inhibitors | actives 0.05% (n = 75,000) | AID 875;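 also: potency is read from the fitted curve at half-maximal effect; plate controls were peptide without protein for full effect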
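Fluorescence polarization: His-tagged BRCT (~35 kDa BRCA1 C-terminus, 250 nM) bound to 100 nM fluorescein-labeled phosphorylated 10-aa BACH1 peptide, pH 7.3 phosphate buffer with DTT and Tween 20. Compounds incubated 12 min at room temperature; inhibition read as lowered polarization.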
CRE-bla Fsk: CRE-bla signaling modulation under forskolin stimulation. CHO CRE-bla reporter (cAMP response element driving beta-lactamase), forskolin EC10, beta-lactamase ratio. Potency, µM (highest dose often 38.2 µM), for inactives: at the top dose activity change, negative = inhibition, hits mostly activators. actives 2.5% (n = 71,000). AID 662; active = well fitted activation curve with a large enough effect in the signal ratio, with a control signal flat, not every such curve was filed as active; inconclusive = small, poorly fitted or top-dose-only effect, or effect the other way, or a change in a side signal; the % refers to the signal ratio; also: potency is read from the fitted curve at half-maximal effect; % of control where 0% means no effect
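Modulation of forskolin signalling: compounds in titration series added with EC10 NKH 477 to CHO cells carrying a CRE-driven beta-lactamase reporter, 3 h, 37C. CCF4 FRET ratio (460/530 nm, ex 405 nm) gives %activity and AC50.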
USP2a inh: blocks human ubiquitin-specific protease USP2a | USP2a enzymatic assay, qHTS inhibition | Potency, µM (series often up to 38.3 µM), for inactives: at the top dose activity change, negative = inhibition, most hits filed as inhibitors | actives 0.1% (n = 60,000);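 also: potency is read from the fitted curve at half-maximal effect; nearly all actives have a fitted effect of over 60% in size; plate controls were DMSO for no effect and NEM full inhibition control for full effect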
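Inhibition is measured in a cell-free coupled assay with 20 nM USP2 core, 20 nM Ub-PLA2 and 20 uM NBD C6-HPC, 2.5 h incubation. Activity normalized to NEM control.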
Caspase-1 inhib: allosteric or competitive inhibitors of human caspase-1; P29466; Caspase-1 enzyme, Ac-WEHD-AFC fluorogenic rate; Potency, µM (doses to about 57.5 µM), inactives show top-dose activity change, negative = inhibition, most hits filed as inhibitors; actives 0.03% (n = 75,000);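 also: potency is read from the fitted curve at half-maximal effect; plate controls were vehicle for no effect and no substrate for full effect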
BRCT inh red: BRCT-phosphoprotein interaction inhibition (red fluorophore); P38398; BRCT-phosphopeptide binding, red fluorescence polarization; Potency, µM (titrated, usually from 76.9 µM), for the others: at the top dose activity change, negative = inhibition, hits mostly inhibitors; actives 0.03% (n = 75,000); AID 892; also: % is scaled to controls: 0 for no effect and ±100 for the full control effect
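Rhodamine-labelled pBACH1 10-mer (100 nM) bound to BRCT domain (100 nM) at pH 7.3; compounds incubated 12 min room temperature, polarization read. Free peptide defines full inhibition; unlabelled decapeptide titrated as control.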
Caspase-7 inhib: allosteric or competitive inhibitors of human caspase-7. P55210. recombinant caspase-7, Ac-DEVD-AFC fluorescence rate. Potency, µM (series often up to 57.5 µM), for the others: at the highest dose activity change, negative = inhibition, most hits filed as inhibitors. actives 0.02% (n = 75,000); active = well fitted inhibition curve with a large enough effect in the main read-out, with a control signal flat, not every such curve was filed as active; inconclusive = small, poorly fitted or top-dose-only effect, or a change in a side signal; also: potency is read from the fitted curve at half-maximal effect; % of control where 0% means no effect
Target sequence (P55210 24-198 limits assumed): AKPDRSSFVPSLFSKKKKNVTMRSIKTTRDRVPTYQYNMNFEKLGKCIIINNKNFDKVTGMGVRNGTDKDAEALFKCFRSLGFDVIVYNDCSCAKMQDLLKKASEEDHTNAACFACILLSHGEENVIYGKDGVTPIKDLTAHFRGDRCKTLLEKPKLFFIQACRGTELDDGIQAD
Target sequence (P55210 207-303 limits assumed): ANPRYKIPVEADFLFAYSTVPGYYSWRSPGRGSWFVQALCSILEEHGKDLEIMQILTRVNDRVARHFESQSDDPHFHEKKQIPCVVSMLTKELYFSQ
An asterisk follows results filed as active; ? = inconclusive; . = not tested or not shown; & = joins results of further samples; [ ] = another dose, or the depositor's remark. Unless noted, calls follow the shape of the dose curve; as a rule, active = well fitted curve in the direction sought with a large enough effect; inconclusive = small, poorly fitted or top-dose-only effect, or another doubt; inactive = no such curve, though single readings can be large; an effect the other way counts as inactive or inconclusive. A portion of the library. The share of hits here may be higher or lower than overall.

Letters – A = BRCT inh green; B = CRE-bla Fsk; C = USP2a inh; D = Caspase-1 inhib; E = BRCT inh red; F = Caspase-7 inhib
CSc1ccc2c(c1)N(CCC1CCCCN1C)c1ccccc1S2 (stereo not drawn)
  A: -0.1%[3.08 µM] | B: . | C: 0% | D: -2% | E: -0.7% | F: 0%

Nc1nc2c(c(=O)[nH]1)N(C=O)[C@H](CNc1ccc(C(=O)N[C@@H](CCC(=O)O)C(=O)O)cc1)CN2
  A: -0.6%[34.4 µM] | B: 4%[17.1 µM] | C: -9%[17.1 µM] | D: -1%[25.7 µM] | E: -1.1%[34.4 µM] | F: 0%[25.7 µM]

CC(C)NC[C@H](O)c1ccc(O)c(O)c1
  A: 0.1% | B: ? | C: -10%[17.1 µM] | D: -1% | E: 0.0% | F: -5%

COC(=O)[C@@H]1[C@@H]2C[C@H]3c4[nH]c5ccccc5c4CCN3C[C@@H]2CC[C@@H]1O
  A: -1.6%[15.4 µM] | B: ? | C: 1%&6%&-4%[17.1 µM] | D: 1%[11.5 µM] | E: -0.7%[15.4 µM] | F: -1%[11.5 µM]

O=c1c2cn[nH]c2[nH]c(=S)n1-c1ccccc1F
  A: -4.7% | B: 1% | C: 0% | D: 1% | E: -1.8% | F: -1%

CCOC(=O)OC(C)OC(=O)C1N2C(=O)C(NC(=O)C(N)c3ccccc3)C2SC1(C)C (stereo not drawn)
  A: -0.8% | B: . | C: 15% | D: -4% | E: 0.9% | F: 1%

Nc1ccn(C2OC(CO)C(O)C2O)c(=O)n1 (stereo not drawn)
  A: -1.0% | B: . | C: 0%&-6% | D: 0%&-3% | E: 1.1%&-0.3% | F: 0%&0%

CNCCNS(=O)(=O)c1cccc2cnccc12
  A: -1.7% | B: ? | C: -2% | D: -1% | E: -1.8% | F: 3%

CCn1nc(C(=O)O)c(=O)c2cc3c(cc21)OCO3
  A: -2.2%[3.08 µM] | B: -4% | C: -4% | D: 5% | E: -2.3% | F: -2%

CC[C@]1([C@H]2O[C@@H]([C@@H]3O[C@](O)(CO)[C@@H](C)C[C@H]3C)C[C@H]2C)CC[C@@H]([C@]2(C)CC[C@@]3(C[C@@H](O)[C@@H](C)[C@@H]([C@H](C)[C@H](OC)[C@H](C)C(=O)O)O3)O2)O1
  A: -2.2%[34.4 µM] | B: -7%[17.1 µM] | C: -6%[17.1 µM] | D: -1%[25.7 µM] | E: 1.1%[34.4 µM] | F: 1%[25.7 µM]
